# VACV mCherry inh: qHTS for Stage-Specific Inhibitors of Vaccinia Orthopoxvirus: mCherry Reporter Primary qHTS; Potency, µM (highest dose often 36.5 µM), for inactives: at the highest dose activity change, negative = inhibition, hits mostly inhibitors; Vaccinia virus mCherry reporter infection, fluorescence; about a quarter of the inactives have no number; hit rate 0.63% among 310,000; active = well fitted inhibition curve with a large enough effect; inconclusive = small, poorly fitted or top-dose-only effect; inactive = no such curve, though single readings can be large or run the other way; tested in A549 cells; also: nearly all actives have a fitted effect of over 35% in size; inactives centre near -10
# VACV Venus inh: qHTS for Stage-Specific Inhibitors of Vaccinia Orthopoxvirus: Venus Reporter Primary qHTS; Vaccinia virus Venus reporter expression, fluorescence; Potency, µM (highest dose often 36.5 µM), without a hit: at the highest dose activity change, negative = inhibition, most hits filed as inhibitors; AID 720580, 2013; hit rate 0.46% among 330,000; active means well fitted inhibition curve with a large enough effect; inconclusive means small, poorly fitted or top-dose-only effect; inactive means no such curve, though single readings can be large or run the other way; tested in A549 cells; also: nearly all actives have a fitted effect of over 30% in size; inactives centre near -10
# An asterisk follows results filed as active; i = inactive; ? = inconclusive; · = not tested or not shown; & = joins results of further samples; [ ] = another dose, or the depositor's remark. % is scaled to controls: 0 for no effect and ±100 for the full control effect; potency is read from the fitted curve at half-maximal effect.
SMILES,VACV mCherry inh,VACV Venus inh
Cc1cc(C)n2nc(SCC(=O)c3cccs3)nc2n1,i,-17%
Cc1cc(C)cc(NC(=O)N2CCNC(=O)C2CC(=O)Nc2cc(Cl)ccc2Cl)c1 (centres undefined),?,?
CCc1nnc(NC(=O)CN2CCN(c3ccccc3OC)CC2)s1,i,-14%
Cc1n[nH]c(C)c1S(=O)(=O)N(CC(=O)NC1CCCC1)c1ccc(C(C)C)cc1,27%,-12%
Cc1cc(C)c(NC(=O)CSc2nc3nc(C)cc(C)n3n2)c(C)c1,6%,-2%
COc1ccc(NC(=O)CN(C)C(=O)c2cc3c(s2)CCCCC3)cc1,-11%,-4%
Cc1cccc(N(CC(=O)NCCc2ccccc2)S(=O)(=O)c2ccccc2)c1C,-23%,-7%
COc1cccc(CN(C)CC(=O)NCc2ccccc2Cl)c1,-15%,-13%
CCCCNC(=O)NS(=O)(=O)c1ccc(NC(=O)CCC(=O)c2cccs2)cc1,i,-4%
CCOc1ccc(-n2cc(-c3ccccc3)c3c(NCCc4ccccc4)ncnc32)cc1,-14%,-10%
Cc1ccc(F)c(S(=O)(=O)NC(=O)C2(C)CCN2C(=O)Cc2ccccc2)c1 (centres undefined),i,-2%
COC(=O)CN(c1cc([N+](=O)[O-])ccc1OC)S(C)(=O)=O,i,-2%
C/C(=N\NC(=O)c1ccncc1)c1cccnc1,-30%,-8%
S=c1[nH]nc(COc2cccc3ccccc23)n1Cc1ccccc1,-7%,-16%
CSc1ccc(/C=C(\NC(=O)c2ccccc2)C(=O)NN)cc1,-5%,-16%
CCOc1ccc(S(=O)(=O)Nc2ccc(C(=O)N3CCC3)cc2)cc1,0%,-8%
CN1CCOCCOc2ccccc2OCCOCC1,-12%,-5%
CCCc1[nH]n(-c2ccc(F)cc2)c(=O)c1C=NCC1CCCO1 (centres undefined),-8%,2%
COc1ccc(CCCNC(=O)C2Cc3c(-c4cccc(NC(C)=O)c4)ccnc3O2)cc1 (centres undefined),-26%,-26%
CCN(CC)c1ccc(NC(=O)c2cnn(-c3ccccc3)c2-n2cccc2)c(C)c1,-18%,?
COc1ccc(OC)c(NC(=O)NC2CCCc3ccccc32)c1 (centres undefined),-9%,?
O=S(=O)(Cc1ccccc1)NC1c2ccccc2Oc2ccccc21,-13%,4%
C=CCNC(=O)NC(=O)Cn1c(=O)c2c(ncn2CC)n(Cc2ccccc2)c1=O,i,-17%
CCOC(=O)C1CCN(S(=O)(=O)c2ccc3c4c(cccc24)C(=O)N3CC)CC1,-15%,10%
O=S1(=O)CC(N2CCN(Cc3ccccc3F)CC2)CN1Cc1cn(Cc2ccc(Cl)cc2)nn1 (centres undefined),3%,2%

# Further compounds follow.
SMILES,VACV mCherry inh,VACV Venus inh
O=C(CSc1nc(-c2cccc(Cl)c2)nc2cc(=O)[nH]n12)Nc1ccccc1,7%,-1%
Cc1nnc(NC(=O)CSc2nnnn2Cc2ccccc2)s1,·,-8%
COc1cc(C(=O)C(=O)N2CCC(Cc3ccccc3)CC2)cc2ccccc12,-29%,-14%
CCOC(=O)N1CCN(C(=O)CSc2nnc(CNC(=O)c3ccccc3F)o2)CC1,0%,-4%
CN(C)c1nc(N2CCN(c3ccc(F)cc3)CC2)c(C#N)c(=O)o1,-11%,-1%
Cc1csc(SC(C)C(=O)Nc2ccc3c(c2)OCCO3)n1 (centres undefined),i,-12%
COC(=O)[C@H]1C[C@@H]1[C@H](N)c1ccccc1,i,-5%
CCCCCCCCN1C(=O)[C@H](CC(=O)NCc2cccs2)C[C@@]2(C(=O)OCC)CCCC=C12,12%,-3%
CN1/C(=C\C(=O)C[n+]2cccc(C(N)=O)c2)C(C)(C)c2ccccc21,-28%,-4%
CC(C)CCN1CCN(Cc2nc3c(s2)CCCC3)CC1CCO (centres undefined),0%,-11%
CCOC(=O)[C@H]1[C@H]2COc3ccccc3[C@@H]2N2C(=O)c3ccc(C)cc3NC(=O)[C@@]12C,i,-2%
O=C(Nc1cccc(F)c1)N1CC=C(n2c(=O)[nH]c3ccccc32)CC1,·,?
CCCc1nc(SC)ncc1C(=O)N1CCN(c2ccc(Cl)cc2)CC1,?,-24%
COc1ccc(OC)c(CNC(=O)C2CCN(S(C)(=O)=O)CC2)c1,-2%,-8%
Nc1ncnc2c1ncn2[C@@H]1O[C@H](CNCc2ccccc2OCc2ccc(Cl)cc2Cl)[C@@H](O)[C@H]1O,i,-14%
O=C(CCCCn1c(=O)c2ccccc2n(Cc2ccccc2Cl)c1=O)NCCc1ccccc1,-10%,-3%
COc1ccc(-n2c3c(cc(C(=O)NNc4ccccc4)c2=O)C(=O)CC(C)(C)C3)cc1,-10%,-6%
CCCNS(=O)(=O)c1ccc(-n2cnnn2)c(OC)c1,-1%,-5%
COc1ccc2nc(SCC(N)=O)cc(C)c2c1,·,-14%
COc1cccc(C2CC(c3cccc(NS(C)(=O)=O)c3)=NN2C(=O)c2ccccc2)c1OC (centres undefined),0%,-19%
CCCCC1CCC(C(=O)NC2CCS(=O)(=O)C2)CC1 (centres undefined),·,-17%
Cc1ccc(-c2ccc(C(=O)NCc3ccccc3)o2)c2ccccc12,-6%,-17%
Cc1cc2c(=O)n(Cc3ccco3)c(SCC(=O)N3CCCc4ccccc43)nc2s1,?,?
Cc1c(NC(=O)CN2CCCC(C)C2)ccc2nsnc12 (centres undefined),-3%,1%
CC(=O)Nc1nnc([N+](=O)[O-])s1,-24%,?

# Structural class: the compounds so far with an aryl methoxy group
SMILES,VACV mCherry inh,VACV Venus inh
CCc1nnc(NC(=O)CN2CCN(c3ccccc3OC)CC2)s1,i,-14%
COc1ccc(NC(=O)CN(C)C(=O)c2cc3c(s2)CCCCC3)cc1,-11%,-4%
COc1cccc(CN(C)CC(=O)NCc2ccccc2Cl)c1,-15%,-13%
COC(=O)CN(c1cc([N+](=O)[O-])ccc1OC)S(C)(=O)=O,i,-2%
COc1ccc(CCCNC(=O)C2Cc3c(-c4cccc(NC(C)=O)c4)ccnc3O2)cc1 (centres undefined),-26%,-26%
COc1ccc(OC)c(NC(=O)NC2CCCc3ccccc32)c1 (centres undefined),-9%,?
COc1cc(C(=O)C(=O)N2CCC(Cc3ccccc3)CC2)cc2ccccc12,-29%,-14%
COc1ccc(OC)c(CNC(=O)C2CCN(S(C)(=O)=O)CC2)c1,-2%,-8%
COc1ccc(-n2c3c(cc(C(=O)NNc4ccccc4)c2=O)C(=O)CC(C)(C)C3)cc1,-10%,-6%
CCCNS(=O)(=O)c1ccc(-n2cnnn2)c(OC)c1,-1%,-5%
COc1ccc2nc(SCC(N)=O)cc(C)c2c1,·,-14%
COc1cccc(C2CC(c3cccc(NS(C)(=O)=O)c3)=NN2C(=O)c2ccccc2)c1OC (centres undefined),0%,-19%

# Later entries
SMILES,VACV mCherry inh,VACV Venus inh
COc1ccc(OC)c(NC(=O)c2cc3oc4ccccc4c3cc2O)c1,-3%,-28%
COc1ccc(O)c(/C=N/N2CCCCC2)c1,-8%,-19%
COc1ccc(-c2nc(N)n(S(=O)(=O)c3ccc(C)cc3)n2)cc1,-20%,-14%
CC(C)C(c1nnnn1C1CCCCC1)N1CCN(C(=O)c2ccco2)CC1 (centres undefined),9%,1%
Cc1cccc(C)c1NC(=O)C(c1cccc2ccccc12)n1c(=O)c(-c2ccco2)nc2ccccc21 (centres undefined),i,-16%
O=C1CN(C(=O)CSc2ccccn2)c2ccccc2N1,-1%,0%
O=C(NCC1CC1)C1(C(F)(F)F)CC(CCc2ccccc2)CCCO1 (centres undefined),-9%,-17%
COc1ccccc1-c1noc(-c2ccc(NCC3CCCO3)c([N+](=O)[O-])c2)n1 (centres undefined),-5%,-6%
COc1cc2[nH]c(=O)n(Cc3ccc(C(=O)N4CCN(c5cc(Cl)ccc5C)CC4)cc3)c(=O)c2cc1OC,?,-29%
CCOc1ccc(CNC(=O)CC(C)n2nc(C)cc2C)cc1OC (centres undefined),i,-7%
O=C(Nc1ccccc1)c1cc2ccccc2[nH]1,-3%,-14%
CCCCN(CCCC)S(=O)(=O)c1ccc(C(=O)Nc2sc3c(c2C(N)=O)CCN(CC)C3)cc1,-14%,-13%
COc1ccc(C=C(C(=O)c2ccccc2)C(=O)c2ccccc2)cc1,i,-5%
COc1ccc(CCC(=O)Nc2ccc(Br)cn2)cc1,-21%,-26%
O=C(COc1ccc([N+](=O)[O-])cc1)NNC(=O)Nc1ccccc1F,-6%,-15%
CC(C)C(=O)NCCc1nc(-c2ccccc2Cl)no1,-13%,-11%
COc1cccc(CSc2nc3n(n2)C(c2ccc(C(=O)O)cc2)C(C(=O)Nc2ccccc2)=C(C)N3)c1 (centres undefined),-11%,-13%
Nc1nc(SCc2ccc(Br)cc2)[nH]c(=O)c1-c1ccccc1,i,-16%
Cc1nn(Cc2ccc(F)cc2)c(C)c1NC(=O)c1noc2c1CCc1ccccc1-2,-19%&-10%,?
Cc1cc(=O)[nH]c(N/N=C/c2ccc(C)o2)n1,i,-2%
Cc1ccc2c(c1)N(C(=O)N1CCC(C(=O)NCc3cccc(Br)c3)CC1)CCO2,-3%,-5%
CCOc1ccc(N=c2oc3cc(O)ccc3cc2C(=O)NCC2CCCO2)cc1 (centres undefined),-13%,-2%
N#C/C(C(=O)N1CCCCC1)=C1/N=C(NC(=O)c2ccc(F)cc2)c2ccccc21,-24%,-14%
Cc1ccccc1-n1ncc2c1CC(C)(C)CC2NC(=O)CSc1ccncc1 (centres undefined),i,-14%
NC(=S)Nc1cccc2cnccc12,·,-14%

# More structures
SMILES,VACV mCherry inh,VACV Venus inh
CCOc1cccc(C(=O)c2ccc(O)c(O)c2O)c1,-12%,-2%
N#C/C(=C\c1cccn1-c1ccccc1)C(=O)NC1CCCCC1,-6%,4%
COCCN1C(=O)/C(=C/c2c(OC)cc(OC)cc2OC)C(=O)N(c2ccccc2)C1=O,-12%,-6%
O=C(c1noc2c1CCCC2)N1CCc2c([nH]c3ccccc23)C1c1ccccn1 (centres undefined),-12%,-8%
Cc1cnc(C(=O)OC(C)C(=O)Nc2ccc3c(c2)OCCO3)cn1 (centres undefined),-15%,3%
CC(=O)Nc1nc2c(s1)C(=O)NCC(C)(C)C2,-7%,0%
COc1ccc(/C=C(/C#N)C(=O)NC2CCCCC2)cc1Br,-20%,-18%
CN(C)C(=O)CSc1cnc2ccccc2n1,i,-13%
O=C(O)c1ccccc1C(=O)NCCCCCCNC(=O)c1ccccc1C(=O)O,-16%,-5%
Cc1nc(-c2ccc(S(=O)(=O)N3CCN(c4cccc(Cl)c4)CC3)cc2)co1,-14%,-5%
CCN(C(=O)c1ccc(C)c(Br)c1)c1ccccc1,i,-11%
O=C(Nc1ccccc1)c1cc(C2COCCN2C(=O)c2ccccn2)on1 (centres undefined),5%,-2%
CC1CCN(C(=O)Cn2c(=O)oc3ccccc32)CC1,·,-6%
COc1ccc(C(O)c2ncc(-c3ccc(Cl)cc3)[nH]2)cc1 (centres undefined),26%,0%
O=C1c2ccccc2NC2(CCCCC2)N1N=C1CCCCC1,i,-12%
Cc1ccc(C(NC(=O)N2CCCC2)C(Cl)(Cl)Cl)cc1F (centres undefined),-4%,-5%
CCNC(=O)CSc1nc2cc([N+](=O)[O-])ccc2n1-c1cccc(C(F)(F)F)c1,-19%,-10%
COc1cccc(CNCCSc2nnnn2C)c1OCc1ccccc1F,5%,-3%
COc1cc(-c2cc3nc(NCc4cccc(Cl)c4)ccn3n2)cc(OC)c1OC,?,-17%
CC/C(=N\Nc1ccccc1)c1c(O)n(-c2ccccc2)c(=O)[nH]c1=O,-12%,-23%
Cc1ccc(-c2ccc(CCC(=O)O)n2Cc2ccco2)cc1,-14%,-8%
CCOc1ccc2nc(NC(=O)c3ccc(OCC4CCCO4)cc3)sc2c1 (centres undefined),-5%,-11%
NCCCn1c(C(=O)c2cc(Cl)c(N)c(Cl)c2)c2ccc([N+](=O)[O-])cc2[n+]1[O-],?,13µM*
COc1ccc(CNC(N)=O)cc1OC,·,-21%
Cc1cccc(C)c1Nc1c(-c2ccccn2)nc2c(C)cccn12,-10%,-13%

# Following part
SMILES,VACV mCherry inh,VACV Venus inh
CCOC(=O)N1CCN(c2c(-c3ccccc3)c3cc(Cl)ccc3[nH]c2=O)CC1,-8%,-6%
CN(c1cccc(NC(=O)c2ccc(Cl)c(S(=O)(=O)Nc3ccccc3)c2)c1)S(C)(=O)=O,-24%,?
COc1ccc(CNC(=O)c2csc(Cc3ccc(Cl)cc3)n2)cc1,-18%,14%
COc1cc2c(cc1OC)C(COc1cc(C)cc(C)c1)N(C(=O)COc1ccccc1)CC2 (centres undefined),-6%,-1%
COc1cccc(CNC(=O)c2cc(Sc3cccc(Cl)c3)nc3ccccc23)c1,-12%,-2%
COc1ccccc1C(=O)NCCC(=O)NCc1ccncc1,-8%,-5%
Cc1cccc(OCC(=O)N(C)CCc2ccccn2)c1,·,-8%
O=C(C[C@@H]1C/C=C\CCC(=O)OC[C@@H]2CCCN2C1=O)N[C@@H](CO)Cc1ccccc1,i,-8%
Cc1nnc(SCC2=C(C(=O)O)N3C(=O)[C@@H](NC(=O)Cn4cnnn4)[C@H]3SC2)s1,-7%,-7%&0%
CC(C)OC(=O)C(C(=O)C(F)(F)F)c1cc(NS(=O)(=O)c2ccc3ccccc3c2)c2ccccc2c1O (centres undefined),-17%,11%
CCOC(=O)C1CCCN(C(=O)c2cc(-c3cccs3)oc2C)CC1 (centres undefined),49%[activator],-6%
COC(=O)c1nnn(-c2nonc2N)c1CSc1nc2ccccc2o1,-29%,2%
CCN(C(=O)COC(=O)/C(C#N)=C/c1ccc(OC)cc1)C1CCS(=O)(=O)C1 (centres undefined),-7%,5%
Cc1ccc(CC2C(=O)N(c3ccc(F)cc3)C(=O)C2C)cc1 (centres undefined),-13%,-7%
